Arbovirus inh: arbovirus infection inhibition; AID 1251; arbovirus infection cell-based antiviral screen; 200,000 tested, 0.37% active; inhibition, % at 10 µM;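 active = inhibition from about 30%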;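 also: bluetongue infection of BSR cells; cell survival read as ATP light after 72 h; 0% = infected wells without compound and 100% = uninfected wells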
Mtb growth: M. tuberculosis H37Rv growth inhibitors, H37Rv strain (AID 1626). inhibition, % at 10 µM, or IC50 in µM where a hit was titrated. 220,000 tested, 0.95% active. M. tuberculosis H37Rv growth inhibition; higher % means a stronger effect;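 active = confirmed in a dose series; inconclusive = inhibition above 80% but not taken into the dose series; inactive = below 80% or under 30% at every dose of the series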;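 also: bacteria incubated seven days before Alamar blue readout; 0% = bacteria only wells and 100% = bacteria with antibiotic wells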
YopH PTP inh: inhibitors of Yersinia enterocolitica YopH tyrosine phosphatase. fluorescence Ex485/Em525. inhibition, %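 (about 10 µM by stock and volumes)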. 140,000 tested, 0.16% active. AID 898;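 active = inhibition of 50% or more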;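 also: controls were vehicle for no effect and minimum signal wells for full effect; inactives centre near -20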
RecA splice inh: inhibitors of M. tuberculosis RecA intein splicing | P9WHJ3 | inhibition, %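 (about 9 µM by stock and volumes)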 | AID 2221 | 290,000 tested, 0.75% active | cell-free RecA intein splicing, fluorescence; in the data active = inhibition above about 30%; inconclusive = no clear call, values can overlap the other calls;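 also: 0% = vehicle wells and 100% = reference inhibitor control wells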
Target sequence (P9WHJ3 whole entry, looked up, canonical isoform): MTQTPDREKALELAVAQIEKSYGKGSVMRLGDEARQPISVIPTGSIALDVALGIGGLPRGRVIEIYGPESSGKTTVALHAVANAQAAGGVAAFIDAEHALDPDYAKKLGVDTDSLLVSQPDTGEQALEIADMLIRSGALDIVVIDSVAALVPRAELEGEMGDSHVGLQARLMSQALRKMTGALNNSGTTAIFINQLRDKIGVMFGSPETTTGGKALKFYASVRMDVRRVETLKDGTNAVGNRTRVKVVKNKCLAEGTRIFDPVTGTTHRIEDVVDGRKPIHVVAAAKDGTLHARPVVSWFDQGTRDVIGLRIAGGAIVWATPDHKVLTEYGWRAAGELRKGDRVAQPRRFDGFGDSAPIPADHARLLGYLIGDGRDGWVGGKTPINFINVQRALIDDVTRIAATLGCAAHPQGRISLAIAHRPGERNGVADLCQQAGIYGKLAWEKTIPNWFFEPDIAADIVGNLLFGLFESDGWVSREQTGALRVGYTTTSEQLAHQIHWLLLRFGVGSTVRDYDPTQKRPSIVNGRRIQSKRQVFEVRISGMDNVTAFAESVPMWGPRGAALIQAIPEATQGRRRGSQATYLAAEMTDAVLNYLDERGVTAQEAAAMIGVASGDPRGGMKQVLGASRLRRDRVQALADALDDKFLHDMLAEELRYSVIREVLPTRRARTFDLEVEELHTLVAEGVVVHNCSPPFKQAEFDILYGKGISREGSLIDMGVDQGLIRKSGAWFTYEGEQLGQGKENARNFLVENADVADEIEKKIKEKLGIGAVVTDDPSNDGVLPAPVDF
Mtb betalactam: beta-lactam sensitization of Mtb H37Rv. M. tuberculosis H37Rv growth with meropenem, percent inhibition; hits of this screen are not shown here. inhibition, % at 25 µM. 330,000 tested, 0.27% active;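 active = about 74% or more and at least 40 points above the plate without the antibiotic, then above 30% in a dose series; inconclusive = first-round hits that could not be retested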;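 also: growth measured after seven days incubation then overnight dye step; 0% = bacteria only wells and 100% = bacteria with antibiotic; twin plates without the antibiotic show which effects depend on it; some results filed as inactive read as strong as hits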
Arbovirus inh repeat: recorded beside Arbovirus inh, whose call it bears; inhibition, %; measured here: 10K subset replicate screen; many hits read low in the repeat;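 first of two repeat runs on a subset; 0% = infected and 100% = uninfected wells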
* hit, by the source's call; ? = inconclusive; · = no result given.

SMILES | Arbovirus inh | Mtb growth | YopH PTP inh | RecA splice inh | Mtb betalactam | others
O=C(Oc1ccc2c(c1)OCO2)c1cccs1 | 6 | 76% | -61 | -1.2 | 88
CCC(Cc1ccccc1)NC(=O)CCn1cccc1 (centres undefined) | 0 | -9% | -12 | 0.3 | -6
c1ccc(CCNCC2COc3ccccc3O2)cc1 (centres undefined) | · | · | · | 0.0 | 3
COc1ccc(C2C(C(=O)NCc3ccccn3)CCC(=O)N2c2cc(OC)c(OC)c(OC)c2)cc1 (centres undefined) | 1 | -5% | · | -0.9 | -4
Cc1cc(S(=O)(=O)/N=C(\N)c2ccc(C(N)=O)cc2)cc(C)c1F | · | · | · | -0.6 | 3
O=C1C2C3C=CC(C3)C2C(=O)N1CNc1ccc(O)cc1 (centres undefined) | -3 | -1% | · | 62* | -5
O=C(O)c1[nH]c2ccccc2c1-c1ccccc1 | 10 | -9% | -18 | 2.5 | 1
COc1ccccc1N1CCN(Cc2cccc(OC)c2O)CC1 | 14 | 8% | -5 | -3.1 | -6
COc1cccc(C(C(=O)NC(C)(C)C)N(C(=O)CCC(=O)Nc2cc(C)on2)c2ccc3c(c2)OCCO3)c1OC (centres undefined) | · | · | · | 0.4 | 2
CC1CCCN(CC(O)COCc2ccc3c(c2)OCO3)C1 (centres undefined) | -1 | -5% | · | -0.7 | -3
CC(=O)n1c(Cl)c(NC(=O)CCl)c2ccccc21 | 8 | 69% | 1 | 25 | 84
COc1ccccc1CNC(=O)Cc1ccc(Br)cc1 | -13 | 14% | -18 | 1.6 | 2
CCOC(=O)CCc1c(C)nc2cc(-c3ccc(F)cc3)[nH]n2c1=O | 21 | -12% | -15 | -3.6 | 6 | Arbovirus inh repeat=2
O=C1CCCN1CCCNc1ncnc2c1[nH]c1ccc(Cl)cc12 | -6 | -9% | -31 | 2.3 | -10
CCOC(=O)N1CCc2c(sc3c2c(=O)n(Cc2ccccc2)c(=O)n3Cc2ccc(C)cc2)C1 | -2 | · | -25 | 4.1 | -1
O=C(CN1CCN(Cc2ccccc2F)C1=O)NCc1cccnc1 | -4 | 0% | -25 | -1.6 | -8 | Arbovirus inh repeat=3
CCCCN(C)C(=O)c1cc2c(s1)-c1ccccc1S(=O)(=O)C2 | · | -1% | · | -1.7 | -7
O=C(CSc1nc2ccccc2c(=O)n1C1CC1)NCc1ccccc1 | -2 | -5% | -39 | 0.6 | -14
Nc1cccc(Oc2cnccn2)c1 | · | · | · | -0.1 | -3
Nn1c(SCC(=O)Nc2c(Cl)cccc2Cl)nncc1=O | · | · | · | -0.8 | -2
CC(C)c1ccc(NC(=O)CN2CCN(C(=O)C3CCCO3)CC2)cc1 (centres undefined) | · | · | · | 0.5 | -10
CC(C)(C)NC(=O)NC(=O)CN1CCN(c2ccccc2O)CC1 | 10 | 1% | · | -2.9 | 8
c1ccc(-n2cnc3cc(NCc4ccccn4)ccc32)cc1 | -12 | 37% | -23 | 0.8 | 83
O=C(N/N=C/c1cccc([N+](=O)[O-])c1)c1c[nH]c2ccccc12 | · | · | · | -3.6 | -2
Cc1nn(-c2ccccc2)c(N2CCCCC2)c1/C=N/NC(=O)c1ccncc1 | -6 | ? | · | 1.1 | 98
Cn1c(CCN2CCCCC2)nc2cc(NS(=O)(=O)c3ccc(Cl)cc3)ccc21 | -14 | -3% | · | -2.5 | 3
COc1ccc(C2CC(=O)OC3=C2C(=O)CC(C)(C)C3)c(OC)c1 (centres undefined) | 4 | -4% | · | -3.2 | 3
CCOc1ccc(CC(=O)N/N=C/c2sccc2C)cc1 | · | · | · | 1.3 | -4
NC(=O)COC(=O)c1ccccc1OCc1ccc(Cl)cc1 | 4 | 4% | · | 0.8 | -2
COc1ccc(-c2nnc(SCC(=O)N3CCCCC3)o2)cc1OC | 1 | 5% | -35 | -0.2 | ?
CC(=O)c1cccc(CN2CCC(CO)(Cc3ccccc3)CC2)c1 | -9 | 9% | · | 0.6 | -6
COCCNc1nc(-c2cc(-c3ccc(Cl)cc3)on2)cc(C(C)C)n1 | · | 15% | · | 3.3 | 99
Cc1ccccc1NC(=O)C1CCCN(S(=O)(=O)c2c(C)noc2C)C1 (centres undefined) | -2 | 1% | -3 | -0.2 | -2
COC(=O)CSc1nnc(CNS(=O)(=O)c2ccc(C)cc2)n1C | 6 | 2% | -5 | · | -8
CCOc1ccc(CN(C)CC(=O)NCc2ccccc2Cl)cc1 | 10 | 6% | · | 1.7 | -4
CCc1cc(C(=O)c2ccc(OC)cc2)c(NC(=O)CN2CCN(C)CC2)s1 | · | 12% | · | -1.0 | 11
CC(=O)Nc1ccc(-c2nc3cc(Cl)ccc3o2)cc1 | · | · | · | 1.7 | -11
CC(C)Sc1ncc(S(=O)(=O)c2ccccc2)c(=O)[nH]1 | 5 | -2% | · | 0.5 | -1
O=C(NN1C(=O)C2C(C1=O)C1C=CC2C12CC2)c1ccc(Cl)cc1 (centres undefined) | · | 8% | · | 1.0 | -5
CCOP1(=O)OCC2OC(n3cnc4c(N)ncnc43)C(O)C2O1 (centres undefined) | · | -10% | · | -1.0 | -11
C/C(=N\S(=O)(=O)c1ccc(C)cc1)NC(=S)Nc1ccc(C)cc1 | 8 | 4% | · | -1.4 | 3
COc1ccc(C(=NN)c2ccc(OC)cc2)cc1 | · | · | · | -0.7 | -7
CCNC(=O)C1CC(=O)N(CCCc2ccccc2)C(=Nc2ccccc2)S1 (centres undefined) | · | 1% | · | -1.7 | -6
CN(CC(=O)N1CCN(c2ccccc2)CC1)C1CCCc2ccccc21 (centres undefined) | · | · | · | -3.0 | -2
CC1CN(CCc2ccccc2)c2nc3c(c(=O)n(CC(N)=O)c(=O)n3C)n2C1 (centres undefined) | · | · | · | -3.0 | 3
CC(CCCC(C)(C)O)NC(=O)c1ccc2oc(CCc3ccccc3)nc2c1 (centres undefined) | · | · | · | 1.0 | -3
Cc1ccc(C)c(S(=O)(=O)N2CCN(C(=O)c3cccnc3)CC2)c1 | · | · | · | -0.6 | -14
Cc1cc(Cl)ccc1NC(=S)NC(C)(C)C | 3 | 0% | · | -3.9 | 1
CCCN1C(=O)c2ccccc2NC1c1ccc(OC)cc1OC (centres undefined) | -10 | -3% | -43 | 0.0 | 9
O=c1[nH]c(SCc2cccc(Cl)c2)nc2ccccc12 | 6 | 12% | · | -1.9 | 7
Cc1ccc(C(=O)CSc2ccc(-c3cccnc3)nn2)cc1 | 10 | -3% | · | -0.4 | -9
COc1ccc(N2CCN(C(=O)NC(=O)c3ccc(Cl)cc3)CC2)cc1 | · | · | · | 1.2 | 2
Cc1cc(C)cc(NC(=S)NCc2cccs2)c1 | 0 | 35% | -33 | -0.4 | -2
CCOC(=O)c1c(N2C(=O)Nc3ccccc3N2O)n[nH]c1-c1cccc(Cl)c1 | 2 | 6% | · | -3.3 | 2
COCCCNC(=O)CSC1=Nc2ccccc2C2=NC(c3ccccc3)C(=O)N12 (centres undefined) | 4 | -12% | · | 1.3 | -6
COc1cccc(NC(=O)c2cccc(S(=O)(=O)N3CCN(Cc4ccccc4)CC3)c2)c1 | · | · | · | 4.3 | -10
CCOC(=O)c1cc(CNC(=O)c2c(C)oc3c2CCCC3)c(C)o1 | 1 | -3% | -30 | 1.5 | -7
COc1ccc(-c2cc(=O)oc3cc(OCC(=O)NCC4CCC(C(=O)O)CC4)ccc23)cc1 (centres undefined) | · | · | · | 9.2 | 0
COc1ccc(CCn2c(C)cc(C(=O)COC(=O)c3ccc(NC(=O)CC#N)cc3)c2C)cc1 | · | · | · | 4.8 | 94
CCOc1cc(C(=O)N2CCN(C/C=C/c3ccccc3)CC2)cc(OCC)c1OCC | -20 | -1% | -2 | 2.0 | 5
(more compounds)
SMILES | Arbovirus inh | Mtb growth | YopH PTP inh | RecA splice inh | Mtb betalactam | others
O=S(=O)(Nc1ccncc1Cl)c1cc(Cl)ccc1Cl | · | 5% | · | 3.4 | 6
CC(=O)Nc1cccc(N2C(=O)CCC2=O)c1 | 2 | 4% | -14 | · | -5
CN(C)Cc1c(C(=O)N/N=C/c2ccccc2OCc2c(F)cccc2Cl)nnn1-c1nonc1N | · | · | · | 1.0 | 5
CCOC(=O)c1c(C)nc2sc3c(=O)n(-c4ccc(C(C)=O)cc4)cnc3c2c1-c1ccc(OC)cc1 | -5 | -3% | -10 | 5.8 | 3
OC[C@H]1O[C@H](OC[C@H]2O[C@H](OC[C@H]3O[C@H](O[C@]4(CO)O[C@H](CO)[C@@H](O)[C@@H]4O)[C@H](O)[C@@H](O)[C@@H]3O)[C@H](O)[C@@H](O)[C@H]2O)[C@H](O)[C@@H](O)[C@H]1O | · | · | · | 0.2 | -4
CCOC(=O)CNC(=S)N(CCCN1CCN(C)CC1)Cc1cccs1 | · | · | · | 0.1 | 0
CCN(CC)C(=O)Cc1cc(C(=O)O)c2ccccc2n1 | -1 | -5% | -34 | 0.7 | 8
Cc1cc(NC(=O)C2CCN(C(=O)c3ccco3)CC2)ccc1Br | · | · | · | 0.3 | -8
COCCN(C(=O)COC(=O)c1cc(C)n(-c2ccccc2)c1C)c1c(N)n(Cc2ccccc2)c(=O)[nH]c1=O | · | · | · | 0.7 | -2
Cn1nc(-c2ccc(NCCO)c([N+](=O)[O-])c2)c2ccccc2c1=O | -12 | -4% | · | 0.5 | 2
O=C(O)c1ccc(N/N=C/C=C/c2ccccc2[N+](=O)[O-])cc1 | 15 | 12% | · | -6.0 | 15
O=C(N/N=C/c1ccc(-c2cccc([N+](=O)[O-])c2)o1)c1cccs1 | -1 | -4% | · | 1.8 | -4
CN(C)C(=O)N1CCC(C(=O)NCC2CCCO2)CC1 (centres undefined) | -5 | · | -50 | 0.5 | 4
O=[N+]([O-])c1cccc(-c2nnc3cccc(Cl)n23)c1 | · | · | · | -2.5 | 7
CC(C(=O)O/N=C(\N)c1cccnc1)c1ccc([N+](=O)[O-])cc1 (centres undefined) | 1 | -7% | · | -0.2 | 0
COc1ccc(CCN2CCCn3c2nc2c3c(=O)[nH]c(=O)n2C)cc1OC | · | · | · | -0.9 | 1
CCN1C(=O)c2cccc3c(N)ccc1c23 | -17 | -1% | · | · | 8 | Arbovirus inh repeat=-9
COc1ccc(OC)c(NC(=O)NCCN2CCN(c3ccccc3)CC2)c1 | · | · | · | -2.1 | 1
CCCN1CC(=O)N2C(c3cccc(OC)c3OC)c3[nH]c4ccccc4c3C[C@H]2C1=O (some centres undefined) | · | · | · | -4.1 | -2
CC(C)OP(=O)(c1ccc(N(C)C)cc1)C(O)c1ccc(Br)cc1 (centres undefined) | · | · | · | 1.0 | -10
COc1ccc(CNC2CCN(Cc3ccccc3)CC2)cc1 | · | · | · | 0.4 | 0
O=C(Nc1cccc(NC(=O)c2ccc(-c3ccc(Br)cc3)o2)c1)c1ccco1 | -7 | 52% | -10 | -10.0 | 24
CCCCn1c(N)c(N(CC(C)C)C(=O)c2cc(-c3ccncc3)nc3ccccc23)c(=O)[nH]c1=O | · | · | · | 2.2 | 0

Among those listed so far, these contain a thiophene ring, fused or not.
SMILES | Arbovirus inh | Mtb growth | YopH PTP inh | RecA splice inh | Mtb betalactam | others
O=C(Oc1ccc2c(c1)OCO2)c1cccs1 | 6 | 76% | -61 | -1.2 | 88
CCOC(=O)N1CCc2c(sc3c2c(=O)n(Cc2ccccc2)c(=O)n3Cc2ccc(C)cc2)C1 | -2 | · | -25 | 4.1 | -1
CCCCN(C)C(=O)c1cc2c(s1)-c1ccccc1S(=O)(=O)C2 | · | -1% | · | -1.7 | -7
CCOc1ccc(CC(=O)N/N=C/c2sccc2C)cc1 | · | · | · | 1.3 | -4
CCc1cc(C(=O)c2ccc(OC)cc2)c(NC(=O)CN2CCN(C)CC2)s1 | · | 12% | · | -1.0 | 11
Cc1cc(C)cc(NC(=S)NCc2cccs2)c1 | 0 | 35% | -33 | -0.4 | -2
CCOC(=O)c1c(C)nc2sc3c(=O)n(-c4ccc(C(C)=O)cc4)cnc3c2c1-c1ccc(OC)cc1 | -5 | -3% | -10 | 5.8 | 3
CCOC(=O)CNC(=S)N(CCCN1CCN(C)CC1)Cc1cccs1 | · | · | · | 0.1 | 0
O=C(N/N=C/c1ccc(-c2cccc([N+](=O)[O-])c2)o1)c1cccs1 | -1 | -4% | · | 1.8 | -4

Assay outcomes from PubChem BioAssay.

The list is partial; the hit share may differ from the screen's.
